# High-throughput results: PubChem BioAssay, Center for Chemical Genomics, University of Michigan
# TAR Tat displ – TAR RNA-Tat peptide displacers, HIV-1, primary screen, biochemical, FRET, FAM/TAMRA-labeled Tat. 100,000 tested, 0.6% active. z-score (no concentration beside the values). HIV-1 TAR RNA, Tat peptide displacement FRET; hits give high values;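 further: score is relative to mean and SD of negative controls; some compounds called inactive have numbers as strong as hits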
# CDC25B CDK2 inh – primary biochemical HTRF screen for blockers of M-phase inducer phosphatase 2 binding to CDK2/cyclin A; P30305+P24941; HTRF CDC25B-CDK2/CyclinA binding, anti-His/anti-Flag; hits give high values; z-score (concentration not given with the values); 94,000 tested, 0.72% active; AID 1259370, 2018;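 further: score is relative to mean and SD of negative controls; strong numbers were not always called active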
# Active calls of the source: *; / = no result given.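 How the source made its calls: active means z-score from 3 up in half or more of its runs; inactive means the rest.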
Compound	TAR Tat displ	CDC25B CDK2 inh
Cn1c(=O)oc2cc(S(=O)(=O)N3CCN(c4nc5ccccc5n5cccc45)CC3)ccc21	0.21	1.5
O=C(CSC1=NS(=O)(=O)c2cc(F)ccc2N1)OCc1ccccc1	0.62	/
Cc1cc(C=C2C(=O)CC(C)(C)CC2=O)oc1C	/	-1.5
Cc1sc2ncnc(SCC(=O)O)c2c1C	2.7	-1.3
Cc1ccc(C(=O)Nc2cnc3oc(-c4ccc(C)cc4)nn3c2=O)cc1	1.8	/
Cc1nn(-c2ccc(N3CCCC3)nn2)c(C)c1CCC(=O)NCc1ccco1	0.54	/
CCOC(=O)c1ccc(OC(=O)c2sc3ccccc3c2N)cc1	2.9	/
CCOC(=O)c1ccc(NC(=O)C2CC(=O)NC(=Nc3ccc(OC)cc3)S2)cc1 (stereo not drawn)	/	-1.3
CN(C)N1C(=O)c2ccccc2C1=O	/	-1.8
Cc1ccccc1OCc1nn2c(-c3ccccc3Cl)nnc2s1	-2.1	0.08
Cc1ccc(C2OC3(C(=O)c4ccccc4C3=O)C3C(=O)N(c4ccccc4F)C(=O)C23)cc1 (stereo not drawn)	/	-1.4
CC1=C(c2ccc(C)c(C)c2)S(=O)(=O)NC1=NCCCN1CCCCC1C (stereo not drawn)	-1.4	-0.07
CCOC(=O)C1=C(c2ccccc2)Nc2ncnn2C1c1ccc(F)cc1 (stereo not drawn)	-0.05	-0.71
Cc1cc(-c2ccc(C(C)C)c(S(=O)(=O)N3CCN(c4ccccn4)CC3)c2)on1	-0.3	/
c1cncc(-c2nc(N3CCCCCC3)c3ccccc3n2)c1	/	-0.92
CC(C)OCCCNc1nc2c(S(=O)(=O)c3ccc(C(C)C)cc3)nnn2c2ccsc12	-1	/
CC1=C(c2ccc(F)cc2)S(=O)(=O)NC1=NCC(C)c1ccccc1 (stereo not drawn)	-1.2	/
Cn1cc(S(=O)(=O)N2CCOCC2)cc1C(=O)NC1CCCCC1	3.1	/
O=C(Cn1ncc2c(=O)oc3ccccc3c21)N1CCc2ccccc21	0.87	-0.42
O=C(C(C(=O)N1CCCCC1)C12CC3CC(CC(C3)C1)C2)N1CCCCC1	/	-1.1
O=C1Cc2cc(S(=O)(=O)NCc3ccccc3)ccc2N1	1.4	/
Nc1c(-c2nc(-c3cccnc3)no2)nnn1-c1ccccc1F	0.23	/
Cc1ccc(CN(C)S(=O)(=O)c2c(C)noc2/C=C/N(C)C)cc1	1.3	/
Cc1cc(C)n(-c2cc(Oc3ccccc3)nc(-c3ccccc3)n2)n1	/	-0.52
Nc1nc2n(n1)C(c1ccco1)CC(c1ccc(Cl)cc1)N2 (stereo not drawn)	1.1	-0.26
CCn1ncc(C2=NOC(C(=O)NCc3cccs3)C2)c1C (stereo not drawn)	1.5	-0.57
O=C1NC(=O)C2C1ON(c1ccccc1)C2c1ccccc1 (stereo not drawn)	/	0.35
Cc1[nH]n(-c2ccccc2)c(=O)c1C(c1ccccn1)c1c(C)[nH]n(-c2ccccc2)c1=O	1.9	1.3
CS(=O)(=O)Nc1nc2ccc(NC(=O)c3cnccn3)cc2s1	0.79	/
Cc1cc(C)n(-c2cc(NCC3CCCCC3)ncn2)n1	-0.56	/

# Of the compounds above, 6 have a carbonyl joined to an NH by a bond outside any ring:
Compound	TAR Tat displ	CDC25B CDK2 inh
Cc1ccc(C(=O)Nc2cnc3oc(-c4ccc(C)cc4)nn3c2=O)cc1	1.8	/
Cc1nn(-c2ccc(N3CCCC3)nn2)c(C)c1CCC(=O)NCc1ccco1	0.54	/
CCOC(=O)c1ccc(NC(=O)C2CC(=O)NC(=Nc3ccc(OC)cc3)S2)cc1 (stereo not drawn)	/	-1.3
Cn1cc(S(=O)(=O)N2CCOCC2)cc1C(=O)NC1CCCCC1	3.1	/
CCn1ncc(C2=NOC(C(=O)NCc3cccs3)C2)c1C (stereo not drawn)	1.5	-0.57
CS(=O)(=O)Nc1nc2ccc(NC(=O)c3cnccn3)cc2s1	0.79	/

# Later entries.
Compound	TAR Tat displ	CDC25B CDK2 inh
O=C(c1cc(-c2ccc3c(c2)OCO3)nc2ccccc12)N1CCN(Cc2ccc3c(c2)OCO3)CC1	0.3	-0.9
CCn1cc(S(=O)(=O)c2ccc(C)c(C)c2)c(=O)c2cc(F)c(N3CCCC3)cc21	-1.4	/
COc1cccc(NC(=O)NC2COc3ccccc3C2)c1 (stereo not drawn)	0.36	/
CCOC(=O)N1CCN(C(=O)Cn2nc(C)c3sc4ccccc4c3c2=O)CC1	2.5	-2.8
CC(C)CCNC(=O)C1(C)Cn2nc(C(=O)NCc3ccco3)cc2C(=O)N1C (stereo not drawn)	0.22	/
FC(F)(F)c1cccc(-c2nnc(-c3ccncc3)o2)c1	/	0.3
c1csc(-c2noc(-c3ccno3)n2)c1	/	-1.1
Cc1ccc(C)c(Cn2nc(-c3cc(C)ccc3C)ccc2=O)c1	1.8	0.22
CCOc1ccc(C2C(C(=O)OCc3ccccc3)=C(C)NC3=C2C(=O)CC(C)(C)C3)cc1 (stereo not drawn)	1.9	-1.5
Oc1ccccc1/C=N/NC(=S)Nc1cccc(Cl)c1	/	-0.47
COc1ccc2c(c1)NC1(CCN(S(=O)(=O)c3ccc4c(c3)CC(=O)N4C)CC1)c1cccn1-2	0.94	/
CSc1nnc(CCCCCCCCc2nnc(SC)o2)o1	/	-3
COCCNC(=O)C1CCCN(S(C)(=O)=O)C1 (stereo not drawn)	1.9	/
CCOCCOC(=O)c1[nH]c2c(c1C)C(=O)CC(c1ccc(N(C)C)cc1)C2 (stereo not drawn)	-6.4	-0.13
O=C1CC(N2CCN(Cc3ccc4c(c3)OCO4)CC2)C(=O)N1c1ccc(I)cc1 (stereo not drawn)	/	-2.6
COc1ccc(OCC(O)CN2CCCCC2)cc1 (stereo not drawn)	1.9	-0.92
CCN(CC)c1ccc2c(C)cc(=O)oc2c1	/	-1.6
COc1cc(C2c3sc(=O)[nH]c3SC3C4CCC(C4)C23)ccc1O (stereo not drawn)	/	-1.6
CC1CCC(NC(=O)CSc2ccsc2[N+](=O)[O-])CC1 (stereo not drawn)	1.5	-0.08
Cn1c(COc2ccccc2C(C)(C)C)nc2ccccc21	-0.3	0.2
O=C(Nc1ccc2c(c1)OCCO2)N1CCCC1c1ccco1 (stereo not drawn)	-0.47	-3.5
Cc1[nH]nc2c1C(c1ccc(Br)cc1)C1=C(CC(C)(C)CC1=O)N2 (stereo not drawn)	/	-1.1
Cc1nn(CC(=O)NCCN2CCCC2)c(=O)c2cc3cc(F)ccc3n12	0.86	3
O=C(c1cc(=O)c2cc(Cl)ccc2o1)N1CCN(C(c2ccccc2)c2ccccc2)CC1	2.7	-1.6
CC(C(=O)N1CCc2ccccc21)N1C(=O)CCCc2ccccc21 (stereo not drawn)	0.16	/
O=c1[nH]c2cc3c(cc2c(=O)n1CCCc1nc(-c2cccc(Br)c2)no1)OCO3	0.27	/
COc1ccc(OC)c(-n2nnc(-c3nc(-c4cccs4)no3)c2N)c1	1.6	/
CCN(CC)S(=O)(=O)c1cc(-c2ccc(=O)n(CC(=O)c3ccccc3)n2)ccc1C	1.5	0.09
O=C(c1cccs1)n1nc(-c2cccnc2)nc1NCc1cccs1	-0.13	1.7
CSC(C)C(=O)/C=C/N(C)C (stereo not drawn)	/	-3.1
CCOC(=O)CSc1nc(C(C)=O)ccc1C#N	/	-2.6
Cc1c(C)n(-c2ccccc2Cl)c2ncn3nc(-c4ccccc4O)nc3c12	0.24	-0.23
C=CCSc1nc2c(c(=O)[nH]1)C(c1cccc(F)c1)C(C(=O)OCC)=C(C)N2 (stereo not drawn)	0.1	-1.2
Cc1nnc(N2C(=O)C(=O)/C(=C(/O)c3ccc(F)cc3)C2c2ccc(C(C)(C)C)cc2)s1 (stereo not drawn)	/	-1.2
O=C(CN1Cc2ccccc2C1=O)Nc1ccc(Br)cc1	-0.13	/
Cn1c(=O)oc2cc(S(=O)(=O)CCC(=O)Nc3cccc(Cl)c3)ccc21	0.75	/
Clc1ccc(-c2noc3ncnc(NCCc4c[nH]c5ccccc45)c23)cc1	1.8	/
Cc1ccc2c(=O)cc(C(=O)N(Cc3ccc(F)cc3)C3CCS(=O)(=O)C3)oc2c1 (stereo not drawn)	2.2	-2.2
CCOc1cccc2c1NC(C)(C)C(=S)C2=C1SC(C(=O)OC)=C(C(=O)OC)S1	0.34	0.25
Cc1cc(C)c2c(=O)cc(C(=O)Nc3ccc4nsnc4c3)oc2c1	0.2	0.99
CCc1ccc(S(=O)(=O)c2nnn3c2nc(NCc2cccs2)c2sccc23)cc1	-0.82	/
CSc1ncc(Cl)c(C(=O)Nc2ccc(S(=O)(=O)N3CCOCC3)cc2)n1	1.3	0.23
CCOC(=O)C(C(=O)OCC)C1N=C(N)N=C2Oc3ccccc3N21 (stereo not drawn)	/	-0.79
CCc1c(C)sc2c1CCNC2c1ccc(F)cc1 (stereo not drawn)	1.8	/
O=C(O)C1CCCN(c2ncnc3onc(-c4ccc(F)cc4)c23)C1 (stereo not drawn)	3.1	-0.9
C=CCN(Cc1nc(-c2ccc(C)cc2)no1)S(=O)(=O)c1c(C)cc(C)cc1C	2.2	-1.9
Cc1cnc(NC(=O)Nc2cc(Cl)ccc2C)s1	1.7	-1.3
CCOC(=O)C1CCN(S(=O)(=O)c2cc(Br)cc3c2N(C(=O)CC)CC3)CC1	/	-0.37
CN(C)CCNCC1CCOC(C)(C)C1 (stereo not drawn)	2.5	-0.88
COc1ccc(NC(=O)c2ccc(C)cc2N)c(N)c1	/	0.48
CN(C)/N=N/c1nc[nH]c1C(N)=O	2.3	/
CC1O[C@@H](Oc2c(-c3ccc(O)c(O)c3)oc3cc(O)cc(O)c3c2=O)[C@H](O)[C@H](O)[C@H]1O (stereo partly drawn)	2.8	/
Nc1nc2c(c(=O)[nH]1)C(c1cccc(Cl)c1)CC(=O)N2 (stereo not drawn)	0.77	-0.7
O=C1CC(c2ccc(F)cc2F)C2=C(CC(c3ccc(F)cc3)CC2=O)N1 (stereo not drawn)	-0.04	0.44
COc1ccc(OC)c(C2C3=C(CC(C)(C)CC3=O)Nc3[nH]c(=S)[nH]c(=O)c32)c1 (stereo not drawn)	/	1.3
O=S(=O)(Nc1ccc(Br)cc1)c1ccc(N2CCCCS2(=O)=O)cc1	1.1	/
COc1ccc(S(=O)(=O)N2CCN(Cc3ccsc3)CC2)cc1	0.83	0.13
Cc1ccccc1Nc1ncnc2c1nc1n2CCCC1	1.1	/
Nc1nc2c(ncn2COCCOC(=O)c2ccccc2)c(=O)[nH]1	0.73	-2.4
CCOc1ccc(OCC)c(NS(=O)(=O)c2ccc3c(c2)C(C)(C)C(=O)N3C)c1	0.88	/

# Further compounds follow:
Compound	TAR Tat displ	CDC25B CDK2 inh
O=C(Cc1c(C(=O)O)[nH]c2ccc(Cl)cc12)Nc1nc2ccccc2s1	/	0.33
O=C1CSC(=Nc2ccc(Cl)cc2)N1Cc1ccco1	/	-0.9
O=C1CCCC2=C1C(c1cccs1)n1nc(SCc3ccc(C(=O)O)cc3)nc1N2 (stereo not drawn)	-0.35	0.27
CC(O)CNc1nc2c(c(=O)n(Cc3ccc(Cl)cc3)c(=O)n2C)n1C (stereo not drawn)	1.1	0.05
O=C(Cn1cc(S(=O)(=O)c2ccccc2)c(=O)c2cc(F)ccc21)Nc1ccc2c(c1)OCCO2	0.55	-0.15
O=C(NCc1ccco1)c1ccc(Cl)cc1[N+](=O)[O-]	/	-1.8
CCCS(=O)(=O)c1nc(S(=O)(=O)c2ccc(C)cc2)c(NCc2ccco2)s1	1.6	0.64
COC(=O)c1cc2occc2n1Cc1nc(-c2ccc(OC)c(OC)c2)oc1C	-0.99	-0.55
Oc1ccccc1C1N(Cc2ccccc2)CCN1Cc1ccccc1	0.43	-1.8
CN(Cc1ccccc1)c1nnc(NC(=O)Nc2cccc(Br)c2)s1	-0.03	0.96
CCS(=O)(=O)c1oc(-c2ccc(F)cc2)nc1S(=O)(=O)c1ccc(Cl)cc1	0.36	-3.4
COc1cc2nc(SCC(=O)Nc3ccc(F)c(Cl)c3)n(-c3ccccc3)c(=O)c2cc1OC	/	-2.3
O=C1CCCC2=C1C(c1cccc(O)c1)C1=C(N2)c2ccccc2C1=O (stereo not drawn)	0.58	-1.4
CCSc1nc2c(c(=O)[nH]1)C(c1ccc(O)c(OC)c1)C1=C(CCCC1=O)N2 (stereo not drawn)	-1.1	2.1
COc1cc(OC)c(NC(=O)C2CCN(c3ccc(-c4cccs4)nn3)CC2)cc1Cl	-1.5	/
Cn1c(=O)c2sccc2n2c(CCC(=O)N3CCN(c4ccccn4)CC3)nnc12	2	-2.3
O=C(c1cnccn1)N(Cc1ccco1)C1(C(=O)NC2CCCCC2)CCCCC1	/	-0.41
CC1CCCN(c2ncnc3c2cnn3-c2ccc(F)cc2)C1 (stereo not drawn)	0.82	/
CCN(CC)c1ccc(C(=O)Nc2ccc(-c3nc4ccccc4[nH]3)cc2)cc1	/	-2
O=S(=O)(Nc1ccc2c(c1)N(S(=O)(=O)c1ccc(F)cc1)CCC2)c1ccc(F)cc1	0.63	/
CN(Cc1ccco1)C(=O)CN(C)S(=O)(=O)c1ccc2c(c1)c(=O)n(C)c(=O)n2C	0.21	-0.01

# Of the compounds above, these have a nitro group on carbon:
Compound	TAR Tat displ	CDC25B CDK2 inh
CC1CCC(NC(=O)CSc2ccsc2[N+](=O)[O-])CC1 (stereo not drawn)	1.5	-0.08
O=C(NCc1ccco1)c1ccc(Cl)cc1[N+](=O)[O-]	/	-1.8
